StopGo reporter – High Throughput Screening for Foot and Mouth Disease Virus Antivirals | human cells with a luciferase reporter of 2A StopGo recoding; control for the full effect not named in the record | Potency, µM (highest dose often 57.9 µM), for the others: at the top dose signal change, negative = less light | 410,000 compounds, 1.2% hits; active = well fitted falling curve with a large enough effect; inconclusive = small, poorly fitted or top-dose-only effect; inactive = no such curve, though single readings can be large or run the other way; tested in HEK293T cells; further: on the % scale 0 is the no-effect control and ±100 the full control effect; nearly all actives have a fitted effect of over 45% in size; luciferase light after 4 h
SARS PLpro yeast – qHTS of Yeast-based Assay for SARS-CoV PLP. S. cerevisiae expressing SARS-CoV PLpro, growth rescue; control for the full effect not named in the record. 330,000 compounds, 0.19% hits. Potency, µM (series often up to 32.9 µM), for inactives: at the highest dose activity, positive = growth rescue. AID 485353, 2010; active means well fitted rising curve with a large enough effect; inconclusive means small, poorly fitted or top-dose-only effect; inactive means no such curve, though single readings can be large or run the other way; further: 0% is about no effect; nearly all actives have a fitted effect of over 55% in size; growth read by luminescence after 48 h
RE007 growth inh – qHTS Assay for Inhibitors of the HIV-1 protein Vpr | S. pombe RE007 Vpr strain, BacTiter-Glo ATP luminescence, 24 h; control for the full effect not named in the record | Potency, µM (doses to about 92.2 µM), for inactives: at the top dose activity change, negative = less growth | 360,000 compounds, 0.21% hits; active = well fitted falling curve with a large enough effect; inconclusive = small, poorly fitted or top-dose-only effect; inactive = no such curve, though single readings can be large or run the other way;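 further: on the % scale 0 is the no-effect control and ±100 the full control effect; nearly all actives have a fitted effect of over 50% in size; the assay follows cell death caused by Vpr and the record does not say whether a fall means rescue or toxicity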
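Fission yeast RE007 carrying one integrated HIV-1 vpr copy, seeded at OD 0.01 in PMG+AL medium with 23 nL pinned compound. Grown 24 h at 30 degrees; viability read by BacTiter-Glo luminescence after 5 min.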
Numbers without * were called inactive; ? = inconclusive; [ ] = another dose, or the depositor's remark. Potency means the concentration at half of the fitted maximal effect. Only part of the results is shown. The share of hits here may be higher or lower than overall.

Every second line gives: StopGo reporter | SARS PLpro yeast | RE007 growth inh
[1] CC(C)(C)OC(=O)C[C@H]1C/C=C\C[C@@H](CC(=O)N(CCO)Cc2ccccc2)C(=O)NC[C@@H](c2ccccc2)OC1=O
    -20% | 1% | 12%
[2] CC(=O)c1cccc(NC(=O)C2C3C=CC(C3=C(c3ccccc3)c3ccccc3)C2C(=O)O)c1 (stereo not given)
    -6% | -1% | -5%
[3] COc1ccc(NC(=O)CN(C)C(=O)C2=NN(c3ccccc3)C(=O)CC2)cc1
    -5% | -3% | 13%
[4] CC1=CC(=O)CC(C)(C)[C@@]1(O)/C=C/[C@@H](C)O[C@@H]1O[C@H](CO)[C@@H](O)[C@H](O)[C@H]1O
    -16% | 5% | -9%
[5] CCOC(=O)[C@@H]1[C@H]2COc3ccc(Br)cc3[C@H]2N2C(=O)N(c3ccc(OC)cc3)C(=O)[C@]12C
    0% | -5% | -8%
[6] CSc1nc2ccc(NC(=O)COc3ccccc3F)cc2s1
    62%[activator] | -10% | 2%
[7] Cc1cc(C(=O)OCC(=O)NCc2ccc(Cl)cc2Cl)c(C)o1
    4% | -4% | 6%
[8] CCCn1c(=O)c(C(=O)NCc2ccco2)c(O)c2ccccc21
    5% | 0% | 1%
[9] O=C1C=C(c2cccc3c2sc2ccccc23)C[C@@H](c2ccc(F)cc2)C1
    -8% | -2% | 8%
[10] CCCCN(C(=O)c1cccc(S(=O)(=O)N2CCCC2)c1)c1c(N)n(CCC)c(=O)[nH]c1=O
    -16% | 6% | 5%
[11] CN(C)S(=O)(=O)c1ccc(C(=O)OCC(=O)NC(=O)NC2CCCC2)cc1
    -10% | -1% | 5%
[12] Cc1cccc(S(=O)(=O)NCCc2cn3ccccc3n2)c1
    6% | -1% | -5%
[13] Cc1ccc(C(=O)CCC(=O)N2CCC(C(N)=O)CC2)s1
    -5% | 6% | 13%
[14] COc1ccccc1-c1sc2ccccc2c1-c1ccccc1OC
    -24% | -2% | 5%
[15] CC(NC(=O)CN1CCN(C(=O)c2cccs2)CC1)c1ccc(F)cc1F (stereo not given)
    -3% | -4% | 1%
[16] O=C(/C=C/c1ccco1)Nc1ccccc1N1CCCCC1
    -2% | -4% | -2%
[17] O=C(OCC(=O)N1CCN(C(=O)c2ccco2)CC1)c1cncc(Br)c1
    -9% | 2% | 9%
[18] Cc1nnc(SCC(=O)NC23CC4CC(CC(C4)C2)C3)n(N)c1=O
    -12% | 2% | 6%
[19] O=C1OC[C@@H]2CCCN2C(=O)[C@@H](CC(=O)N(CCO)Cc2ccccc2)C/C=C\C[C@H]1Cc1ccc(F)cc1
    -8% | 4% | 3%
[20] COc1cc(NC(=S)NC(=O)c2ccccc2F)ccc1NC(=O)c1cccs1
    -2% | 0% | 1%
[21] CCN1C(=O)[C@@H]2[C@@H](c3ccc(-c4ccc(F)cc4)c(OC)c3)N3CCC[C@@]3(C(=O)OC)[C@@H]2C1=O
    ? | -5% | 1%
[22] COc1cc(OC)c2c(c1)S(=O)(=O)C(c1ccccc1)=C2N
    7% | -3% | 1%
[23] CC(C)CCNC(=O)c1ccc(CS(=O)(=O)Cc2ccccc2F)o1
    41%[activator] | -1% | 28%
[24] COc1ccc(NC(=O)c2ccc(NC(=O)c3nc4nccc(C)n4n3)cc2)cc1
    -6% | -1% | 3%
[25] CCCc1cc(=O)[nH]c(SCC(=O)N(C)C2CCCCC2)n1
    -3% | -3% | -3%
[26] Cc1cc(NC(=O)CSCC(=O)Nc2cc(Cl)ccc2N2CCN(C)CC2)no1
    -3% | -1% | -16%
[27] COc1ccc(CN([C@H](CO)CC(C)C)S(=O)(=O)N(Cc2ccccc2)[C@H](CO)CC(C)C)cc1
    ? | -2% | 19%
[28] CCCCNc1c(-c2cccc(SC(C)CC)c2)nc2ccc(Cl)cn12 (stereo not given)
    ? | 8% | ?
[29] CN1CCCN(c2ncnc3scc(-c4ccc(F)cc4)c23)CC1
    -2% | 2% | -2%
[30] Cc1cccc(OCC(=O)NNC(=O)c2ccccc2OCc2c(C)noc2C)c1
    -12% | -3% | -11%
[31] C[C@@H]1CN([C@H](C)CO)C(=O)c2cccc(NC(=O)Nc3ccc(C(F)(F)F)cc3)c2O[C@H]1CN(C)S(=O)(=O)c1cccs1
    0% | -2% | 2%
[32] O=C(NCC(=O)N(CC1CCCO1)C(C(=O)NC1CCCCC1)c1cccnc1)c1cccs1 (stereo not given)
    12% | 1% | 4%
[33] Cc1cc(C)c(CN2CCN(C(=O)Cn3ccc(NC(=O)OCc4ccccc4)nc3=O)CC2)c(C)c1
    ? | 1% | 7%
[34] CCOC(=O)C1=C(C)N(C[C@@H]2CC[C@@H](Cc3ccc4cc(OC)ccc4c3)O2)C(=O)NC1c1ccccc1 (stereo not given in full)
    0% | -17% | -13%
[35] C[C@H]1CN([C@@H](C)CO)C(=O)Cc2cc(NS(=O)(=O)c3ccc(Cl)cc3)ccc2O[C@@H]1CN(C)C(=O)Nc1cccc2ccccc12
    -13% | -1% | 10%
[36] Cc1ccc(C2(c3ccccc3)NC(=O)N(CC(=O)N3CC(=O)Nc4ccccc43)C2=O)cc1C (stereo not given)
    -29% | 2% | -17%
[37] O=C(NN1C(=O)c2ccccc2NC1c1cccnc1)c1ccc([N+](=O)[O-])cc1 (stereo not given)
    -18% | 19% | 8%
[38] O=C(NCCOc1ccc(Cl)cc1)C1CC(=O)N(c2ccc3c(c2)OCCO3)C1 (stereo not given)
    -3% | -1% | 7%
[39] COc1ccc2cc(C3=CC(=O)C[C@H](c4ccc5c(c4)OCO5)C3)ccc2c1
    -4% | -8% | -1%
[40] OC[C@H]1O[C@H](OCCc2ccc(O)cc2)[C@H](O)[C@@H](O)[C@@H]1O
    -13% | -17% | -1%
[41] CCCCC[C@@H]1C=C(C(=O)O)[C@H](c2ccc(Cl)cc2)N1S(=O)(=O)c1ccc(C)cc1
    -10% | -4% | -14%
[42] CC1CCN(C(=O)c2nc[nH]c2C(=O)O[C@H](C)c2ccccc2)CC1
    -5% | 5% | 7%
[43] OCC[C@H]1C[C@H](O)[C@@H](O)[C@@]2(Cc3ccccc3CCO2)O1
    -14% | -8% | 12%
[44] CCc1nnc(NS(=O)(=O)c2ccc(NC(=O)c3cccc(Cl)c3)cc2)s1
    -10% | 0% | -9%
[45] Cc1cccc(N2CCN(C(=O)c3ccc(NC(=O)CC4SC(N5CCCC5)=NC4=O)cc3)CC2)c1C (stereo not given)
    0% | -1% | -11%
[46] O=C(CCC(=O)Nc1ccccc1Cl)NNC(=O)COc1ccc([N+](=O)[O-])cc1
    -17% | -2% | 22%
[47] Cc1nn(-c2ccccc2)c2nc(C(F)F)cc(C(F)F)c12
    0% | 0% | -11%
[48] CN(Cc1cccs1)S(=O)(=O)c1ccc(Cl)cc1F
    -12% | -5% | 1%
[49] COc1ccc(-c2nc(CCl)cs2)cc1
    15% | 0% | -29%
[50] CS(=O)(=O)NCCNC(=O)c1cc(OCC(F)(F)F)ccc1OCC(F)(F)F
    4% | -8% | -2%
[51] O=C(OCC(=O)N1CCc2ccccc2C1)c1c(F)cccc1Cl
    56%[activator] | 0% | 0%
[52] CCN(CC)CCN(C(=O)c1ccc([N+](=O)[O-])cc1)c1nc2c(OC)cccc2s1
    -3% | -1% | 2%
[53] CC1CCN(S(=O)(=O)c2ccc(Cl)s2)CC1
    -22% | -1% | -9%
[54] Nc1ccc2sc(N)nc2c1
    -1% | 5% | -7%
[55] Cc1ccc(NC(=O)COC(=O)c2ccc(-n3cccn3)cc2)cc1C
    -16% | 11% | -17%
[56] [O-]/C(=C(\C(=S)Nc1ccc(Cl)cc1)[n+]1ccccc1)c1ccc(OC(F)F)cc1
    -16% | 2% | -23%
[57] CSc1ncccc1C(=O)OCC(=O)c1ccc[nH]1
    25% | 4% | 0%
[58] Cc1nc(SCC(=O)Nc2cc(S(=O)(=O)N3CCOCC3)ccc2Cl)nc(C)c1C
    -23% | 7% | 0%
[59] CN(C)S(=O)(=O)c1ccc(C(=O)NNC(=O)c2ccccc2-n2cccc2)cc1
    -12% | -5% | 5%
[60] N#CC1(NC(=O)CSc2nnc(C3CC3)n2C2CC2)CCCCC1
    1% | 3% | -5%

(further entries)
Every second line gives: StopGo reporter | SARS PLpro yeast | RE007 growth inh
[61] CC(=O)Nc1ccc(C2=CC(=O)C[C@H](c3ccc(Cl)cc3)C2)cc1
    14% | 2% | 12%
[62] CCSc1nnc(NC(=O)c2cc(OC)c(OC)c(OC)c2)s1
    -14% | -11% | 2%
[63] CC(C)NC(=O)Nc1ccc2c(c1)C(=O)N([C@H](C)CO)C[C@H](C)[C@@H](CN(C)C(=O)Nc1ccc3c(c1)OCO3)O2
    -22% | 3% | 1%
[64] Cc1cc(C)n2c(SCC(=O)Nc3ccccc3C#N)nnc2n1
    4% | 3% | -6%
[65] Nc1nc2c(c(=O)[nH]1)CN(Cc1ccccc1)CC2
    5% | -1% | -2%
[66] CCN(CC)S(=O)(=O)c1cccc(C(=O)OCC(=O)NCCN2C(=O)CSC2=O)c1
    20% | -3% | 3%
[67] COc1ccc([C@H]2CC(=O)C=C(c3ccc(CO)cc3)C2)cc1
    24% | -2% | 10%
[68] O=[N+]([O-])c1ccccc1/C=C\C=N\N1CCN(c2ccccc2)CC1
    0% | -2% | -21%
[69] CC(=O)c1ccc(N=C2SCCCN2C(=O)C2CCCCC2)cc1
    -8% | 2% | 11%
[70] COc1cc(C(=O)NNC(=O)c2cc(S(=O)(=O)N(C)C)ccc2N2CCCC2)cc(OC)c1OC
    -23% | 2% | 3%
[71] CC(=O)N(Cc1cccs1)Cc1cc2ccc(C)c(C)c2nc1Cl
    -30% | 1% | -5%
[72] COc1cc(NC(=O)COc2cccc3c2OC(C)(C)C3)cc(OC)c1OC
    22µM* | 5% | -12%
[73] O=C(C[N+]1(CC#Cc2ccccc2)CCCCC1)c1ccccc1
    -20% | 3% | -14%
[74] Cn1ccc(NC(=O)c2ccc([N+](=O)[O-])cc2)n1
    3% | -4% | 1%
[75] Cc1cc(Br)c(NC(=O)CSc2n[nH]c(N)n2)c(Br)c1
    -18% | 0% | 0%
[76] Cc1ccc2c(CC(=O)Nc3ccc(F)c(S(=O)(=O)N4CCOCC4)c3)coc2c1
    49%[activator] | -6% | -4%
[77] C=C(C)[C@@H]1C2C(=O)O[C@H]1[C@H]1OC(=O)[C@@]34OC3C[C@]2(O)[C@@]14C (stereo not given in full)
    -17% | 2% | -1%
[78] CC(C)C(NC(=O)c1c(F)cccc1F)C(=O)NCC(c1ccccc1)N(C)C (stereo not given)
    -8% | 2% | 7%
[79] CN(CC(=O)Nc1ccc(F)cc1)C(=O)c1cccc(NS(=O)(=O)c2ccccc2)c1
    6% | -10% | -18%
[80] Cc1cc(=O)n(CC(=O)Nc2cc(Cl)ccc2C)c(C(C)C)n1
    -1% | 0% | 20%
[81] CCCCC/C=C/C1=CC(=O)C[C@H](c2ccc3c(c2)OCO3)C1
    -29% | -6% | -11%
[82] N#Cc1ccccc1S(=O)(=O)N1CCN(C(=O)c2cn(-c3ccccc3)nc2-c2cccnc2)CC1
    8% | -8% | 26%
[83] Cc1ccc(N2CC(C(=O)Nc3cccc(C(=O)NC4CC4)c3)CC2=O)cc1 (stereo not given)
    -15% | -6% | -7%
[84] c1ccc(Nc2scc(-c3ccccc3)[n+]2Cc2ccco2)cc1
    11% | -23% | -19%
[85] COc1cccc(-c2ncc3ccccc3c2COC(=O)N2CCCCC2)c1
    -18% | -4% | 8%
[86] CCN1C(=O)[C@H]2[C@@H](c3ccc(C)cc3)N3C(=O)N(c4cccc(Cl)c4)C(=O)[C@@]3(C)[C@H]2C1=O
    -9% | 2% | 3%
[87] O=C(CSc1ncccn1)NCc1cccc(Cl)c1
    11% | 0% | 16%
[88] CN1CCN(c2ccc(NC(=O)c3cccc(S(=O)(=O)N4CCCC4)c3)cc2)CC1
    -18% | 0% | -2%
[89] Cc1ccc(-n2[nH]c(C)c(C=Nc3ccc(Br)cn3)c2=O)cc1
    21% | 0% | -20%
[90] OC(c1ccccc1)(c1ccccc1)c1ccn[nH]1
    1% | 4% | 14%
[91] COc1ccc(CCNC(=O)c2ccc(OCc3c(C)noc3C)cc2)cc1OC
    ? | -6% | 1%
[92] COc1cc2c(C#CCCCO)c(-c3ccc(C#N)cc3)oc(=O)c2cc1OC
    -12% | -11% | 4%
[93] CCN(C[C@H]1N[C@@](C)(C(=O)OC)[C@H]2C(=O)N(C)C(=O)[C@@H]12)C(C)=O
    -14% | 3% | -12%
[94] CCNc1nnc(SCC(=O)c2c(N)n(C3CC3)c(=O)[nH]c2=O)s1
    -8% | 10% | -10%
[95] O=C(C[C@@H]1C/C=C\C[C@@H](Cc2ccc(F)cc2)C(=O)OCCNC1=O)NCCO
    8% | 1% | -5%
[96] CCCCn1c(N)c(N(CC)C(=O)C2CCC2)c(=O)[nH]c1=O
    -22% | 0% | -27%
[97] Cc1ccc(NC(=O)CSCC(=O)NCCc2ccccc2)c(C)c1
    -8% | 5% | -3%
[98] O=C(Cc1c[nH]c2ccccc12)N1CCN(c2ccccc2)CC1
    -10% | 1% | 0%

High-throughput results as filed in PubChem.
